High-throughput results (PubChem BioAssay)
Beta2AR agonist = agonists of human beta-2 adrenergic receptor inducing internalization | Am2.2-beta2AR cells, FAP receptor internalization, flow cytometry; reference of the scale not given here | response, % (no concentration beside the values) | 340,000 tested, 0.43% active | AID 504454;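 active = response above a set limit, near 3 SD of response in nonfluorescent compounds, cut at about 42% in these data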;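 note: stock transfer was 100 nL into about 11 µL; a reference agonist was the positive control; negative values mostly stem from fluorescent compounds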
Target sequence (P07550 whole entry, looked up): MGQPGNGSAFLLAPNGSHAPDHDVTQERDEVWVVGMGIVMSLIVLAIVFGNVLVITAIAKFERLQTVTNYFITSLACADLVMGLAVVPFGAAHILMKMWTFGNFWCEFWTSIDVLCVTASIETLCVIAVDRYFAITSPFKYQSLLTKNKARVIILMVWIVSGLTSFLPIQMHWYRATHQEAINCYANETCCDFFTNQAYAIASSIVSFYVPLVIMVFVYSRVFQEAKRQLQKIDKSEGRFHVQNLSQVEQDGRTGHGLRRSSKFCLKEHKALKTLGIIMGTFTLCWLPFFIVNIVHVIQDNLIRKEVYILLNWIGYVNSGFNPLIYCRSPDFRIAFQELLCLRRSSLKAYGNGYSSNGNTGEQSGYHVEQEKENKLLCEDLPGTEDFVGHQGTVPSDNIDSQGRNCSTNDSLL
HNF4A DNA FP = change in binding of human HNF4 alpha to DNA; P41235; HNF4a-FITC DNA binding, fluorescence polarization, 1 h; activity change, % at 10 µM; 360,000 tested, 0.3% active; AID 1224865; in the data active = activity change above about 30%, passing the limit was not always enough;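 note: controls were the assay level and a saturating level of protein; the project sought stronger binding though the title names inhibitors; some compounds called inactive have numbers as strong as hits; positive values seem to mean higher polarization but the record does not say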
UCH37 inh = inhibitors of human deubiquitinating enzyme UCH37; purified proteasome/UCH37, Ub-AMC cleavage fluorescence; inhibition, % (concentration not given with the values); Q9Y5K5; 330,000 tested, 0.33% active;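 active = mean of two replicates above 20%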;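 note: 0% = compound-free wells with enzyme and 100% = wells lacking proteasome; stock transfer was 100 nL into about 20 µL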
Target sequence (Q9Y5K5 whole entry, looked up): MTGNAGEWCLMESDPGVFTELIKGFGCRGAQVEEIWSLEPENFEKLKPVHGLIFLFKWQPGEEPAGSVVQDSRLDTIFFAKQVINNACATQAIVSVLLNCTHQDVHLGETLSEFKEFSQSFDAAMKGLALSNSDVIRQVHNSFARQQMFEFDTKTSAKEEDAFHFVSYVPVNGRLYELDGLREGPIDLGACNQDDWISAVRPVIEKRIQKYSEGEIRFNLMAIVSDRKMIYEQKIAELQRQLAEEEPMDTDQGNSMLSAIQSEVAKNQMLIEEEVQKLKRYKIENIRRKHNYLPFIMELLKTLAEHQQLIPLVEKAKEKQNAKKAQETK
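assay system = human UCH37 enzyme supplied as purified proteasome complex | amount = proteasome at 0.15 nM in the dispensed enzyme solution | schedule = 30 min compound-proteasome preincubation then 25 min substrate reaction, room temperature | measured by = fluorescence, ex 355 nm, em 460 nm | benchmarks = no-proteasome wells (full inhibition) and compound-free wells (no inhibition)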
E coli growth = inhibitors of Escherichia coli growth; OD600 absorbance (no concentration beside the values); 330,000 tested, 0.21% active; OD600, 23 h; stronger effect = lower value; AID 1053175;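 active = OD600 absorbance below the run mean of sample wells minus 3.6 SD, in any replicate, cut at about 0.56 in these data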;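 note: stock transfer was 300 nL into about 60 µL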
Vif A3G = inhibitors of Vif binding to APOBEC3G peptide, primary screen, biochemical, TR-FRET, GST-Vif 1-94, biotin-A3G peptide, dose response retest (AID 1117319); TR-FRET GST-Vif / biotin-A3G peptide binding; higher % means a stronger effect; test concentration not given here; strong numbers were not always called active; inhibition, %, or IC50 in µM where a hit was titrated; 260,000 tested, 0.57% active;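 active = above the screen mean plus three standard deviations and confirmed in dose response; inconclusive = results disagree or hit not tested in dose response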;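 note: Vif residues 1-94 fused to GST binding biotinylated APOBEC3G peptide 110-148; 0% = full assay without inhibitor and 100% = GST in place of GST-Vif; retest series ran down from 100 µM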
A1 inh = inhibitors of the anti-apoptotic protein A1, read as caspase activation | MEF A1-2A-BIM cells, Caspase-Glo 3/7 luminescence, 3 h; percent of clofoctol response, vehicle zero | caspase activation, % (test concentration not listed) | 330,000 tested, 0.066% active | AID 2462;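 active = over half of replicate activation scores above 10%, or exactly half above 10 with the replicate mean above 10; inconclusive = replicate mean below 10 yet half the replicates above 10; inactive = over half of replicates below 10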;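 note: wells of about 30 µL received 50 nL stock; many hits fall short of the cut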
LANA-H2A inh = blocks KSHV LANA binding to histone H2A/H2B; inhibition, % (no concentration beside the values); 320,000 tested, 0.6% active; Q9QR71; cell-free LANA-H2A/H2B peptide, fluorescence polarization; in the data active = inhibition mostly above about 10%, no sharp cut-off; inactive = mostly below about 6.7%;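 note: stock transfer was 7.5 nL into about 10 µL; 0% = median of vehicle wells and 100% = median of positive control wells; one replicate is shown; the record names a cut of 25% in any replicate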
Numbers without * were called inactive; ? = inconclusive; . = not tested or not shown; & = joins results of further samples. Only part of the results is shown (hit frequency here may not be typical).

SMILES	Beta2AR agonist	HNF4A DNA FP	UCH37 inh	E coli growth	Vif A3G	A1 inh	LANA-H2A inh
CCC1C2Cn3c(nc4ccccc43)C1N(C)O2 (centres undefined)	5.6	0.3	0.4	0.593	8.4%	-0.2	2.0
O=c1[nH]c(=O)n(C2CCCCCC2)c(O)c1C=NCc1cccnc1	-10.5	1.9	7.3	0.686	.	0.5	3.0
Cn1c(O)c(C=Nc2ccccc2)c(=O)n(C)c1=O	-1.3	0.6	10.4	0.702	-0.2%	0.0	0.5
CCOc1cc(C=C2C(=O)NC(=O)NC2=O)cc([N+](=O)[O-])c1O	.	.	26.5*	.	13.5%	0.4	4.6
CCN(CC)c1ccc(CNCCc2ccccc2F)cc1	-4.0	4.8	2.1	0.645	2.8%	-0.5	-2.5
CC(N)Cc1c[nH]c2ccc(OCc3cccs3)cc12 (centres undefined)	11.2	1.6	1.3	0.66	.	0.2	-2.7
O=c1c(C=NCc2cccs2)c(O)n(C2CCCCC2)c(=O)n1C1CCCCC1	9.3	-5.7	-1.0	0.755	1.2%	-0.4	-0.5
CC12CCC(=O)C=C1CCC1C2CCC2(C)C1CCC2(O)CC#N (centres undefined)	-5.5	-2.5	2.1	0.703	-2.5%	.	.
CCCCn1c(O)c(C=Nc2c(C)n(C)n(-c3ccccc3)c2=O)c(=O)[nH]c1=O	4.3	5.2	2.7	0.688	4.3%	0.9	6.2
CC(C)C(=O)Nc1ccc(N2CCN(C)CC2)c(F)c1	-10.3	-0.8	1.4	0.678	.	0.9	-1.0
O=P(NC1CCCCC1)(Oc1ccccc1)Oc1ccccc1	9.7	-1.3	1.7	0.682	-5.9%	.	.
O=C(c1ccccc1)C1CCCN(Cc2nc(-c3cnccn3)no2)C1 (centres undefined)	1.3	-2.1	1.4	0.714	-7.0%	-0.6	3.2
COc1ccc(N2CCN(Cc3nc4ccccc4[nH]3)CC2)cc1	-4.5	0.2	6.1	0.664	.	0.6	1.4
O=c1[nH]c(=O)n(C2CCCCC2)c(O)c1C=Nc1ccc(N2CCOCC2)cc1	-1.5	-2.1	-43.9	0.649	4.1%	0.1	8.5
O=C(Nc1ccc(Cl)cc1)O/N=C(\c1ccccc1)c1ccccn1	-2.6	2.0	.	.	-5.3%	-0.1	-4.1
Cc1ccccc1NC(=O)NCCN1CC1	-7.4	10.6	.	.	-3.3%	0.0	-5.0
O=c1[nH]c(=O)n(-c2ccccc2F)c(O)c1C=NCCC1=CCCCC1	-2.4	7.6	.	.	6.0%	0.9	0.6
O=c1[nH]c(Cl)ccc1CN1CCOCC1	3.0	-1.3	1.2	0.712	.	1.4	1.8
COC(=O)C1=C(c2cccc(OC)c2OC)C[C@@H]2CC[C@H]1N2C(=O)NCc1ccc(F)cc1	1.5	-0.1	-0.6	.	.	-0.2	4.8
CC(=O)Nc1ccc(OC(=O)c2ccccc2N)cc1	-13.0	2.2	-64.9	0.697	1.7%	-1.3	8.6
Nc1ccc2ccccc2c1	3.0	0.9	-56.0	0.674	-10.6%	.	.
CCn1c(O)c(C=NCCN2CCOCC2)c(=O)[nH]c1=S	-0.9	2.8	13.1	0.65	-21.2%	-0.6	-1.1
CN1CCN(C(=O)COc2ccc(S(=O)(=O)NCc3ccccc3)cc2Cl)CC1	2.7	2.4	2.2	0.66	-0.4%	0.5	-1.3
O=C(COc1ccccc1)N1CCN(CC2CC3C=CC2C3)CC1 (centres undefined)	0.2	1.6	5.7	0.663	18.9%	0.3	-3.6
Cc1cc(C=C2C(=O)N(C)C(=S)N(C)C2=O)c(C)n1-c1cccnc1	8.4	14.6	3.6	0.635	?	0.4	-4.7
CCOC(=O)C1=C(CC)Nc2ccccc2N=C1NC(=O)c1cc(C)on1	-1.6	1.9	-0.4	0.69	.	0.1	0.4
CN(C)[C@@H]1C(=O)C(C(N)=O)=C(O)[C@@]2(O)C(=O)C3=C(O)c4c(O)ccc(Cl)c4[C@@](C)(O)C3C[C@@H]12 (some centres undefined)	1.6	-9.1	.	.	7.02µM*	.	.
Cc1cccc(N2C(=O)NC(=O)/C(=C\C=C\c3ccco3)C2=O)c1	69.2*	4.9	1.3	0.679	?	1.5	3.1
O=C(Cc1ccccc1)N1CCN(CC2CC3C=CC2C3)CC1 (centres undefined)	-3.9	1.4	7.0	0.675	-7.2%	0.5	5.3
O=P(Nc1ccccc1)(Nc1ccccc1)Oc1cccc(Cl)c1	-0.9	-2.9	4.9	0.717	2.3%	2.0	-0.9
O=C(C(=O)N1CCC2(CC1)OCCO2)c1c[nH]c2ccccc12	-1.9	-0.6	6.8	0.688	9.8%	0.6	5.6
CC(=NCCC1=CCCCC1)c1c(O)n(C)c(=O)n(C)c1=O	-10.4	-0.7	1.5	0.662	-2.5%	0.3	0.5
N#Cc1c(Cl)nc(Cl)c2c1CCN(Cc1ccccc1)C2	3.1	-4.5	.	.	?	-0.1	-4.3
O=C(c1ccccc1)C(Cc1ccccc1)N1CCOCC1 (centres undefined)	-4.8	2.7	-1.2	0.729	-0.1%	.	.
O=C(OCCOc1ccccc1)c1cc(S(=O)(=O)N2CCOCC2)ccc1Cl	-5.0	-4.5	1.7	0.694	.	0.0	2.4
C[N+]12CCC(CC1)C(C#N)(N1CCOCC1)C2 (centres undefined)	-6.1	3.0	2.7	0.696	22.3%	-0.7	-5.0
CC12CN3CC(C)(CN(C1)P3(=O)Oc1ccccc1)C2=O (centres undefined)	-2.1	-0.3	-0.6	0.671	-2.7%	0.3	0.8
CCc1ccc(CN2CCN(C(=O)Cc3ccccc3)CC2)cc1	-2.1	-1.3	1.5	0.648	?	0.1	-0.8
COC(=O)C1=C(c2ccc(S(C)(=O)=O)cc2)C[C@@H]2CC[C@H]1N2C(=O)NC1CC1	-9.8	0.9	2.9	.	.	0.0	-3.6
CCOC(=O)c1ccc(N2C(=O)CC(N3CCC(C#N)(c4ccccc4)CC3)C2=O)cc1 (centres undefined)	5.0	-5.6	5.0	0.688	-1.4%	0.2	-1.9
O=C(c1cccn2c(=O)c3ccccc3nc12)N1CCC2(CC1)OCCO2	0.4	0.7	-389.5	0.669	-3.4%	0.3	-1.5
CN(C)C(=O)Oc1ccc(Cl)c2ccccc12	1.9	0.8	2.6	0.738	8.9%	0.1	0.5
CCNc1ccc(P(=S)(N(C)C)N(C)C)cc1	4.9	-0.9	5.5	0.701	1.6%	1.3	-2.3
CN1CCN(CCC(=O)OC2CC3CCC(C2)N3C)CC1 (centres undefined)	-5.4	0.7	2.7	0.753	14.1%	-0.2	2.8
C=CCn1c(O)c(C(C)=Nc2ccc(C(=O)OCC)cc2)c(=O)[nH]c1=O	-2.8	-2.3	3.0	0.68	-4.0%	0.2	6.5
CC(CCc1ccccc1)NC(C)C(O)c1ccc(O)cc1 (centres undefined)	4.1	2.3	3.2	0.693	21.7%	-1.5	0.9&-12.0
O=C(c1ccco1)N1CCN(S(=O)(=O)c2cccc([N+](=O)[O-])c2)CC1	-1.2	0.0	0.2	0.715	-2.1%	1.8	-1.8
OC(CN1CC=C(c2ccccc2)CC1)c1ccccc1 (centres undefined)	9.5	-3.0	0.4	0.67	.	-0.3	-1.6
COc1ccccc1N1CCN(Cc2c(F)cccc2Cl)CC1	3.0	-0.2	-0.4	0.728	6.1%	-0.5	-3.8
O=C1NC(=O)N(c2ccc3c(c2)OCO3)C(=O)/C1=C/c1ccc(N2CCCC2)o1	-18.7	143.0	7.4	.	?	1.1	-29.0

(list continues)
SMILES	Beta2AR agonist	HNF4A DNA FP	UCH37 inh	E coli growth	Vif A3G	A1 inh	LANA-H2A inh
Cc1cc(OC(C)C(=O)NCc2ccncc2)c2c3c(c(=O)oc2c1)CCCC3 (centres undefined)	-3.8	-3.5	-80.3	0.709	10.0%	1.1	3.0
O=P(NS(=O)(=O)c1ccc(Cl)cc1)(Oc1ccccc1)Oc1ccccc1	10.8	-3.3	0.1	0.691	3.4%	1.5	-3.0
C=CCC1(CCCCC)C(=O)NC(=S)NC1=O	8.1	-5.3	.	.	-8.4%	.	.
Cc1ccc(-n2c(O)c(/C=C/C=Nc3ccccc3)c(=O)[nH]c2=O)cc1	-7.5	71.0*	10.4	0.648	.	2.1	-4.5
CC1CCCCN1Cc1ccc(Cl)nc1 (centres undefined)	-5.5	4.1	4.1	0.71	-5.7%	0.2	0.6
O=c1[nH]c(O)c(Cc2ccc3c(c2)OCO3)c(=O)[nH]1	-1.9	-1.4	3.8	0.652	3.9%	0.5	0.6
O=C(c1ccc(F)cc1)C(Cc1ccccc1)N1CCCCC1 (centres undefined)	2.8	-6.9	0.6	0.656	-2.2%	0.7	0.7
O=c1[nH]c(O)c(C=Nc2cc(F)cc(F)c2)c(=O)[nH]1	-5.7	-1.0	-43.0	0.685	.	-0.7	-5.3
COc1ccc(CC2c3cc(OC)c(OC)cc3CCN2C)cc1O (centres undefined)	0.5	0.4	2.7	0.664	-5.0%	-0.5	-2.5
O=c1[nH]c(O)c(C=NC2CCCCC2)c(=O)[nH]1	4.5	-0.3	2.9	0.671	-3.8%	0.6	-1.9
O=C(NC1(C(F)(F)F)Oc2ccc(Cl)cc2O1)N1CCC2(CC1)OCCO2 (centres undefined)	-0.3	1.4	0.9	0.739	19.0%	-0.2	1.6
Cc1cc(C(=O)N2CCC3(CC2)OCCO3)cs1	-1.6	-3.8	0.6	0.724	1.8%	0.6	0.8
CCOc1ccc(C2C(C#N)=C(N)Oc3c2c(=O)oc2ccccc32)cc1 (centres undefined)	-2.0	1.8	.	.	1.5%	.	-22.5
N#CC1=C(N)Oc2cc(O)ccc2C1c1ccc2c(c1)OCO2 (centres undefined)	4.3	1.0	2.2	0.632	.	0.5	0.7
Cc1ccc(S(=O)(=O)NC(Cc2cnc[nH]2)C(=O)O)cc1 (centres undefined)	-1.2	1.1	5.7	0.684	?	0.0	-2.3
CCC(C)n1c(O)c(C=NC(C)c2ccccc2)c(=O)[nH]c1=S (centres undefined)	-9.3	7.9	4.1	0.632	?	0.0	-0.1
COc1cccc(N2C(=O)NC(=O)/C(=C\c3ccc([N+](=O)[O-])s3)C2=O)c1	0.8	-6.7	11.5	0.482*	?	.	.
CC/C(=N\N1CCCCCC1)c1c(O)n(-c2ccc(C)cc2)c(=O)[nH]c1=O	-8.3	5.3	4.3	0.661	-1.8%	0.3	-1.0
CCCCCCC(C)(C)c1ccc([C@@H]2C[C@H](O)CC[C@H]2CCCO)c(O)c1	0.7	-1.7	-0.6	.	.	0.5	2.5
C=CCN1C(=O)NC(=O)/C(=C\c2ccc(-c3ccccc3[N+](=O)[O-])o2)C1=O	5.5	1.1	8.9	0.709	10.7%	0.4	1.5
Cc1cc(OCC(=O)N2CCC(C(=O)O)(c3ccccc3)CC2)c2c(C)c(C)c(=O)oc2c1	2.1	-2.8	-130.3	0.671	.	0.0	-4.9
COc1cc2c(cc1O)CC1c3c(cc(O)c(OC)c3-2)CCN1C (centres undefined)	9.1	-5.6	-16.3	0.666&0.735	?	0.3	1.8
CCC1(NS(=O)(=O)c2ccc(N)cc2)C(=O)N(C)C(=O)N(C)C1=O	-2.5	5.8	.	.	-0.6%	.	.
O=C(c1ccccc1F)c1cn(CC(=O)N2CCCC2)c2ccccc12	5.3	2.5	3.7	0.67	-0.4%	0.5	2.1
O=C1NC(=S)N(c2ccccc2)C(=O)/C1=C/c1ccco1	4.1	-43.4	.	.	9.42µM*	1.5	4.6
COCCOC(=O)c1c(C)n(C)c2ccc(OC(=O)N(C)C)cc12	0.6	2.8	4.9	0.664	2.6%	0.5	0.8
